Vif TR-FRET = inhibitors of Vif binding to APOBEC3G peptide, primary screen, biochemical, TR-FRET, GST-Vif 1-94, biotin-A3G peptide, dose response retest (AID 1117319). inhibition, %, or IC50 in µM where a hit was titrated. 260,000 compounds, 0.57% hits. TR-FRET GST-Vif / biotin-A3G peptide binding; higher % means a stronger effect; test concentration not given here; strong numbers were not always called active. Virion infectivity factor (Human immunodeficiency virus type 1 group M subtype B (isolate …;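 active means above the screen mean plus three standard deviations and confirmed in dose response; inconclusive means results disagree or hit not tested in dose response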;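 further: Vif residues 1-94 fused to GST binding biotinylated APOBEC3G peptide 110-148; 0% = full assay without inhibitor and 100% = GST in place of GST-Vif; retest series ran down from 100 µM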
HNF4A DNA FP = change in binding of human HNF4A to DNA, primary screen, biochemical, fluorescence polarization, FITC-DNA | 360,000 compounds, 0.3% hits | 1 h | activity change, % at 10 µM; in the data active means activity change above about 30%, passing the limit was not always enough;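 further: controls were the assay level and a saturating level of protein; the project sought stronger binding though the title names inhibitors; some compounds called inactive have numbers as strong as hits; positive values seem to mean higher polarization but the record does not say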
AF4-AF9 inh = inhibitors of AF4 peptide binding to AF9, primary screen, biochemical, AlphaScreen, biotin-AF4 peptide, FLAG-AF9, single point; inhibition, % at 10 µM; 350,000 compounds, 0.47% hits; AID 651704, 2012;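 active means every replicate reaching a set inhibition limit, whatever the replicate mean, cut at about 25% in these data; inconclusive means mean inhibition reaches that limit but some replicates miss it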;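 further: 0% = plate neutral control median and 100% = total signal loss; the record names both 10 and 1 µM as test concentration; the first replicate is given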
Target sequence (P42568 whole entry, looked up): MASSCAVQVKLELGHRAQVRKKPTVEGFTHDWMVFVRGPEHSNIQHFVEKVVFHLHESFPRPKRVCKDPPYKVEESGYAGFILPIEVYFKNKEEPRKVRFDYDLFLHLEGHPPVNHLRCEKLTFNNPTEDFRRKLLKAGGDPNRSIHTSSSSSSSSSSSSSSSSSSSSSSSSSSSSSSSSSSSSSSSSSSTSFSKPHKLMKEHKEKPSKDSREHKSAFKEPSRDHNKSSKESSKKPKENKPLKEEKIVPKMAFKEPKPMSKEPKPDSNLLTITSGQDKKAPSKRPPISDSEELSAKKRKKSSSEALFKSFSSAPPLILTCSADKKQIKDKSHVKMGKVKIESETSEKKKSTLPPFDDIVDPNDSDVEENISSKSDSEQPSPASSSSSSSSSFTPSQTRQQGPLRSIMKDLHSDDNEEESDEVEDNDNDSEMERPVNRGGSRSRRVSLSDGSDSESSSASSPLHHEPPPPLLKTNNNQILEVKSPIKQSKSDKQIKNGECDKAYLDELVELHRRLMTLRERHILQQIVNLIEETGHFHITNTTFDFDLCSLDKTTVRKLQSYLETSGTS
UCH37 inh = inhibitors of human UCH37 deubiquitinase, primary screen, biochemical, Ub-AMC cleavage, fluorescence | 330,000 compounds, 0.33% hits | purified proteasome/UCH37 | AID 588478, 2011 | inhibition, % (no concentration beside the values);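 active means mean of two replicates above 20%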;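 further: 0% = compound-free wells with enzyme and 100% = wells lacking proteasome; stock transfer was 100 nL into about 20 µL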
Target sequence (Q9Y5K5 whole entry, looked up): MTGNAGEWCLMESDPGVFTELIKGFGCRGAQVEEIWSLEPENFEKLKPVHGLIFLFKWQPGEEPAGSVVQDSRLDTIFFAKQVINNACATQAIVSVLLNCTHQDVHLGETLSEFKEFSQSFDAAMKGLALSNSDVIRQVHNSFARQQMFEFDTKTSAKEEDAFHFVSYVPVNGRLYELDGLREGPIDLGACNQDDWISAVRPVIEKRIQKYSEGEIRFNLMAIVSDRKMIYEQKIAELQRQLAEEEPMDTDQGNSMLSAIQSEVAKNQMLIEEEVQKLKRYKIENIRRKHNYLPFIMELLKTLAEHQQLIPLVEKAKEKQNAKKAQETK
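Reagent: Ub-AMC substrate; assay system: Proteasome-associated human UCH37 deubiquitinase; controls: no-proteasome and no-compound wells; read-out: % inhibition of Ub-AMC cleavage fluorescence; timing: 30 min preincubation with enzyme, 25 min cleavage at room temperature; signal: AMC fluorescence from Ub-AMC cleavage, excitation 355 nm, emission 460 nm; buffer or medium: Tris-HCl pH 7.4 plus ovalbumin, ATP-MgCl2, DTT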
FGF22 binding = binders of human FGF22 protein, primary screen, FGF22 synaptogenesis inhibitor project, biophysical, thermal shift, single point; recombinant FGF22 thermal shift, SYPRO orange fluorescence; percent of sucrose octasulfate shift, DMSO zero; calls only at 9.99 µM; 340,000 compounds, 1.5% hits; AID 651658, 2012;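 active means melting point raised past a set limit in the mean and every replicate; inconclusive means no clear call; three in four hits are not shown here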
Target sequence (Q9HCT0 whole entry, looked up): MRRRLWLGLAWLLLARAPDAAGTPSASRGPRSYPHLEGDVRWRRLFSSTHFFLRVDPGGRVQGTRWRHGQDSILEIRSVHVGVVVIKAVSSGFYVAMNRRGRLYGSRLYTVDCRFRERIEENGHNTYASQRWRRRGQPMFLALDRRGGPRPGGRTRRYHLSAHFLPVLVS
Ecoli growth = E. coli growth inhibition, primary screen, OD600; Escherichia coli growth, 23 h; stronger effect = lower value; OD600 absorbance (concentration not given with the values); 330,000 compounds, 0.21% hits; AID 1053175, 2014;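 active means OD600 absorbance below the run mean of sample wells minus 3.6 SD, in any replicate, cut at about 0.56 in these data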;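 further: stock transfer was 300 nL into about 60 µL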
RanGTP-Imp inh = inhibitors of RanGTP-importin-beta interaction, primary screen, biochemical, FRET, CFP-Ran, YFP-importin-beta, homogeneous; cell-free CFP-Ran/YFP-importin-beta FRET ratio; inhibition, % (concentration not given with the values); 300,000 compounds, 1.1% hits; AID 2216, 2009;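 active means most replicates above 15%; inconclusive means exactly half above 15%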;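 further: 0% = DMSO wells and 100% = Ran loaded with GDP instead of GTP; wells of about 40 µL received 100 nL stock; the first replicate is given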
An asterisk follows results filed as active; i = inactive; ? = inconclusive; . = not tested or not shown; & = joins results of further samples. Some of the compounds tested; the hit share may differ from the screen's.

SMILES	Vif TR-FRET	HNF4A DNA FP	AF4-AF9 inh	UCH37 inh	FGF22 binding	Ecoli growth	RanGTP-Imp inh
CCOP(=O)(c1ccccc1)c1nc(-c2ccccc2Cl)oc1N1CCCCC1 (stereo unspecified)	.	-3.9	.	-34	.	0.7	0.8
Cc1cccc(-c2cc(NC=O)c3ncc(-c4cccc(C(=O)N(C)C)c4)n3c2)c1	.	6.8	0.7	.	i	.	.
CCOc1cccc(-c2nn(-c3ccccc3)cc2/C=C(/C#N)C(=O)NCCCn2ccnc2)c1	-5%	3.1	.	-5.3	.	0.65	3.6
CC1CCN(C(=O)CN2C(=O)NC3(CCCc4ccccc43)C2=O)CC1 (stereo unspecified)	4%	-0.1	-0.7	1.1	i	0.65	.
Cc1ccc(NC(=O)C(Nc2cccc(C)c2)c2ccccc2)cc1 (stereo unspecified)	4%	-0.6	.	6.6	.	0.74	-3.2
COc1ccc2c(c1)c(CC(=O)Nc1ccc(C(C)=O)cc1)c(C)n2C(=O)c1ccc(Cl)cc1	2%	1.1	0.4	3.5	i	0.75	-1.9
Cc1cccc(N2CCN(C(=S)Nc3ccc4nc(N5CCN(C)CC5)cc(C)c4c3)CC2)c1C	-14%	59*	5.2	6.4	i	0.61	2.8
CC(c1ccccc1)c1nnc(NC(=O)c2ccc3c(c2)OCO3)s1 (stereo unspecified)	-11%	-2.6	.	5.4	i	0.67	-0.1
CC(=O)NC1(c2nnnn2CCOC(=O)Nc2ccc(Cl)cc2)CCCC1	1%	-3.0	-0.3	1.7	i	0.63	-0.6
CCc1ccccc1N(CC(=O)NC1CCCC1)C(=O)CNC(=O)c1cccs1	3%	2.8	1.6	1.2	i	0.66	1.1

HNF4A DNA FP: what is marked active above.
Compound	Vif TR-FRET	HNF4A DNA FP	AF4-AF9 inh	UCH37 inh	FGF22 binding	RanGTP-Imp inh
Cc1cccc(N2CCN(C(=S)Nc3ccc4nc(N5CCN(C)CC5)cc(C)c4c3)CC2)c1C	-14%	59*	5.2	6.4	i	2.8

Gathered by group, those above with a Cl atom.
SMILES	Vif TR-FRET	HNF4A DNA FP	AF4-AF9 inh	UCH37 inh	FGF22 binding	Ecoli growth	RanGTP-Imp inh
CCOP(=O)(c1ccccc1)c1nc(-c2ccccc2Cl)oc1N1CCCCC1 (stereo unspecified)	.	-3.9	.	-34	.	0.7	0.8
COc1ccc2c(c1)c(CC(=O)Nc1ccc(C(C)=O)cc1)c(C)n2C(=O)c1ccc(Cl)cc1	2%	1.1	0.4	3.5	i	0.75	-1.9
CC(=O)NC1(c2nnnn2CCOC(=O)Nc2ccc(Cl)cc2)CCCC1	1%	-3.0	-0.3	1.7	i	0.63	-0.6

Following part
SMILES	Vif TR-FRET	HNF4A DNA FP	AF4-AF9 inh	UCH37 inh	FGF22 binding	Ecoli growth	RanGTP-Imp inh
Cc1cccc(NC(=O)N(Cc2cc3cc(C)cc(C)c3[nH]c2=O)CC2COCCO2)c1 (stereo unspecified)	1%	5.9	.	0.5	.	0.71	6.5
S=C1NCCNC(=S)NCCOCCN1	4%	0.0	-2.1	5.1	i	0.63	-4.3
O=[N+]([O-])c1cccc(CN2[C@@H](Cc3ccccc3)COCCS2(=O)=O)c1	.	-1.4	.	-1.9	.	.	0.4
CCOC(=O)c1sc(NC(=O)CN2CCN(c3ccccc3)CC2)nc1C	.	-1.6	5.7	2.8	i	0.65	4.7
O=C(NCc1ccccc1)c1cc(=O)c2ccccc2o1	1%	0.1	-2.0	2.3	i	0.71	0.5
Cc1ccc(N2CC(C(=O)N3CCN(C(=O)c4ccco4)CC3)CC2=O)cc1 (stereo unspecified)	-6%	-0.2	.	3.0	.	0.68	3.4
CCCc1cc(-c2nc(-c3ccc(Cl)cc3)cs2)ccn1	-3%	-0.1	.	4.9	.	0.63	-1.2
COc1ccc(C(=O)Nc2ccc(S(=O)(=O)NC(C)=O)cc2)cc1	4%	2.7	.	-1.2	.	0.67	1.8
COc1ccc(CNc2nc3ccccc3n2Cc2ccc(C)cc2)cc1OC	-5%	-3.6	.	0.3	.	0.7	-0.8
CCCS(=O)(=O)c1nc(S(=O)(=O)c2ccc(C)cc2)c(N2CCN(CCO)CC2)s1	.	-3.0	0.5	0.9	i	0.68	0.2
CN(CC(=O)Nc1ccc(Cl)c(S(=O)(=O)N(C)C)c1)Cc1ccccc1	.	0.8	-0.7	0.2	i	0.66	1.3
COc1ccc(C(=O)NCC(=O)OCC(=O)Nc2cc([N+](=O)[O-])ccc2F)cc1	-2%	-0.7	-4.3	1.6	i	0.69	-0.6
Cc1ccc(-c2ccc(=O)n(CCC(=O)NCc3ccccn3)n2)cc1	-2%	0.3	.	-3.9	.	0.76	-1.0
CSC1=NC(C)(C)CC2(C)Nc3ccccc3N12 (stereo unspecified)	11%	0.9	13	2.4	i	.	-48
COc1ccc(S(=O)(=O)n2cccc2)cc1OC	.	3.5	-0.1	2.3	i	0.7	2.1
COc1cc(OC)c(OC)cc1NC(=O)CC1COc2ccccc2O1 (stereo unspecified)	19%	1.3	.	4.7	.	0.72	-0.9
Cc1cccc(C)c1N1CCN(C(c2ccnc3ccccc23)c2nnnn2-c2ccc3c(c2)OCCO3)CC1 (stereo unspecified)	.	-4.9	1.6	.	i	.	.
CC(C)c1ncc(C(O)c2cccc3ccccc23)n1C (stereo unspecified)	-3%	1.3	.	-0.3	.	0.71	-1.4
CCOC1=C2[C@@H](CN(S(=O)(=O)c3ccc(C)cc3)[C@H]2c2cccc3ccccc23)[C@H]2C(=O)N(c3ccccc3)C(=O)[C@H]2C1	.	1.9	0.9	.	i	.	.
CCN1CCN(C(=O)c2cc(COc3ccc4ncccc4c3)on2)CC1	0%	-3.0	-3.1	-1.8	.	0.7	1.9
O=C(NCc1ccc(Cl)cc1)c1ccc(N2CCCC2=O)cc1	.	-3.9	-0.7	1.5	i	0.72	-2.2
O=C(NCCCn1ccnc1)c1ccc(OCC(F)(F)F)cc1	4%	2.9	-1.8	0.8	i	0.69	-3.0
O=C(CN1CCC(NC(=O)Cc2ccccc2)CC1)Nc1ccccc1Br	.	1.0	-0.4	2.3	i	0.71	1.3
N#C/C(=C\c1cn[nH]c1-c1ccc(Cl)cc1)C(=O)NC1CC1	-6%	1.0	.	3.9	.	0.68	0.1
COc1ccccc1C(c1nnnn1Cc1ccccc1)N1CCN(c2nc3ccccc3s2)CC1 (stereo unspecified)	19%&-1%	1.0	.	4.4	.	0.77	3.9
Cc1ccc(C(=O)Oc2ccccc2N2CCOCC2)cc1	-6%	-0.3	0.4	6.4	i	0.68	-4.2
Cc1ccccc1-n1nc(C)c2cc(C(=O)N3CCN(S(=O)(=O)c4ccccc4)CC3)sc21	-5%	-0.7	.	-2.3	.	0.68	.
CCOC(=O)C1CCCN(CC(=O)Nc2nc(-c3ccccc3)cs2)C1 (stereo unspecified)	.	3.0	3.5	2.5	i	0.65	-2.8
CCC(=O)Oc1ccc2c(C)cc(=O)oc2c1C(=O)CC	.	-1.6	9.8	.	i	.	0.9
Cc1ccc(S(=O)(=O)N2CCN(C(=O)CN3C(=O)CNC3=O)CC2)cc1	-9%	-5.6	-0.4	0.7	i	0.69	.
CC(C)(C)OC(=O)N1CCN(C(=O)c2cccnc2Cl)CC1	-2%	-2.8	0.8	-0.5	i	0.64	0.1
COc1ccc(NC(=O)c2ccco2)cc1NC(=O)c1ccccc1	.	1.8	1.3	1.2	i	0.69	?
Cc1ccc2c(c1)N(CC(=O)N1CCCCC1c1cccnc1)C(=O)CO2 (stereo unspecified)	-1%	1.0	.	5.5	.	0.7	-0.7
O=C(NCC1CC1)c1cc(-c2ccccc2)nn1CC1CC(c2cccnc2)=NO1 (stereo unspecified)	.	0.1	-8.6	3.5	i	0.68	1.0
Cn1c(=O)c2c(nc(NCC3CCCO3)n2Cc2ccccc2)n(C)c1=O (stereo unspecified)	9%	1.8	.	26*	.	0.69	-0.4
C[C@@H]1CC=C[C@H]2[C@H]1C(=O)N(Cc1ccccc1)[C@H]2c1ccc2ccccc2c1/C=C/c1ccccc1	16%	0.4	5.7	1.8	i	.	-0.5
CC(C)Cc1nnc(NC(=O)CCC(=O)N2CCC(C)CC2)s1	.	0.8	-5.7	3.5	i	0.64	-1.3
COc1ccc(Cc2c(-c3cccc(Cl)c3)nc3ccc(C)cn23)c(C)c1	.	12	7.0	.	i	.	.
O=C(O)/C=C\C(=O)NCc1cccnc1	7%	-0.2	-0.7	1.6	.	0.65	3.7
COc1cc(NC(=O)c2cccnc2)ccc1NC(=O)c1ccccc1Cl	.	-4.7	1.2	0.1	i	0.65	-5.3
COc1ccccc1C(=O)NNC(=O)c1cccc([N+](=O)[O-])c1	0%	2.9	0.0	3.4	i	0.67	-1.9
CCOc1cc(C(=O)CCC(=O)OCC(=O)Nc2ccc(F)cc2)ccc1O	-7%	-0.6	-2.1	0.3	i	0.65	.
CCOC(=O)c1c(NC(=S)Nc2cccnc2)sc(C)c1C	1%	-0.8	-2.2	2.0	i	0.62	-4.9
CC1(O)CC(=O)N(c2ccccc2)O1 (stereo unspecified)	-2%	-0.4	.	1.7	.	0.72	?
Cc1ccc(S(=O)(=O)N2CCN(C(=O)COC(=O)COc3ccc(Cl)c(C)c3)CC2)c(C)c1	.	1.9	-3.2	2.3	i	0.7	.
CN(C)S(=O)(=O)c1ccc(C(=O)NCc2nnc(SCC(=O)N3CCCCCC3)o2)cc1	-2%	-0.5	-3.6	1.6	i	0.71	3.8
NC(=O)C1CCN(C(=O)CNC(=O)c2ccc(Br)o2)CC1	-2%	-2.3	-0.4	-2.3	i	0.66	2.0
O=C(CSc1ncccc1C(=O)O)c1ccc2ccccc2c1	0%	2.5	.	0.1	.	0.67	5.5
CC(=O)Nc1ccc2nc(N)sc2c1	24%	1.0	.	4.6	.	0.63	3.5
COc1cccc(CNC(=O)Cn2cc([N+](=O)[O-])cn2)c1	-3%	2.2	2.7	0.1	i	0.63	2.0

The list continues:
SMILES	Vif TR-FRET	HNF4A DNA FP	AF4-AF9 inh	UCH37 inh	FGF22 binding	Ecoli growth	RanGTP-Imp inh
O=C(Cn1c(=O)oc2cc(S(=O)(=O)N3CCc4ccccc43)ccc21)NC1CCCC1	4%	5.4	-29	5.1	i	0.72	2.0
CCCCNC(=O)C1(C)CCCCN1C(=O)c1cncc(Br)c1 (stereo unspecified)	.	1.2	-2.1	.	i	.	.
COc1ccc2cc(C3=CCCCC3)ncc2c1	.	3.9	-0.3	-20	i	0.67	.
CCOC(=O)c1c(C)[nH]c(C(=O)CSc2nnc(-c3ccncc3)n2CC)c1C	2%	3.0	.	2.5	.	0.65	2.9
CCN(C)C1CN(Cc2cn(Cc3cccc(Cl)c3)nn2)S(=O)(=O)C1 (stereo unspecified)	.	-0.2	-1.9	.	i	.	.
COCCn1ccc2c(OCC(=O)NCCc3ccc(OC)c(OC)c3)cccc2c1=O	.	-2.0	0.9	3.0	i	0.7	-0.8
CC(C)COc1ccc(-c2cc(C(=O)NN)[nH]n2)cc1	.	4.9	1.0	1.0	i	0.7	?
COc1cccc(N2CCN(c3nc(-c4ccccc4C)cc(=O)[nH]3)CC2)c1	.	0.1	6.0	3.0	i	0.68	0.0
COc1cccc(C(=O)Nc2cccc(SC)c2)c1	1%	-0.7	.	0.7	.	0.74	1.2

From PubChem BioAssay
